Screening data from PubChem BioAssay.
MT1-MMP act inh = blockers of MT1-MMP proenzyme processing, primary screen, HT1080 RFP-PRO-GFP cells, GFP/RFP fluorescence | 0.061% of 360,000 active | GFP/RFP ratio fluorescence, overnight; percent of plate control window, DMSO zero | Matrix metalloproteinase-14 (Homo sapiens), P50281 | GFP/RFP ratio change, % at 20 µM;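 active = GFP/RFP ratio change of at least 30% with cell ATP level not reduced by more than half and red fluorescence within 50% of control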; also: strong numbers were not always called active
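Test system: HT1080 cells expressing an RFP-PRO-GFP fluorescent reporter construct / Compound dosing: single-point 20 µM compound, 1% DMSO / Schedule: cells overnight before dosing, compound overnight, 37 °C, 5% CO2 / Evaluation: GFP/RFP fluorescence ratio / Control set: DMSO and RFP-L50D-GFP cell wells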
HIV Env fusion = inhibitors of HIV-1 Env-driven cell-cell fusion, primary screen, HeLa-JRFL effector, CEM21 target cells, luciferase | inhibition, % at 12.3 µM | 1.1% of 360,000 active;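 active = mean replicate inhibition score of at least 50 and every replicate individually at or above 50; inconclusive = only one of the two criteria met; inactive = mean below 50 and not all replicates reaching 50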;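 also: 0% = plate neutral controls and 100% = maraviroc near 300 nM; one replicate is shown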
Rce1 inh = yeast Rce1p protease inhibitors, primary screen, biochemical, fluorescence, cell-free homogeneous; calls only; CAAX prenyl protease 2 (Saccharomyces cerevisiae (strain ATCC 204508 / S288c)), Q03530; yeast membranes, quenched prenylated peptide cleavage fluorescence; 0.27% of 290,000 active;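 active = fall in fluorescence gain of 50% or more versus controls, with final raw signal at or below 3038400; inconclusive = same 50% fall but final raw signal above 3038400; inactive = fall in fluorescence gain under 50%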;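 also: plate controls were neutral control wells for no effect and wells lacking membranes for full effect; tested at 10 µM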
Target sequence (Q03530 whole entry, looked up): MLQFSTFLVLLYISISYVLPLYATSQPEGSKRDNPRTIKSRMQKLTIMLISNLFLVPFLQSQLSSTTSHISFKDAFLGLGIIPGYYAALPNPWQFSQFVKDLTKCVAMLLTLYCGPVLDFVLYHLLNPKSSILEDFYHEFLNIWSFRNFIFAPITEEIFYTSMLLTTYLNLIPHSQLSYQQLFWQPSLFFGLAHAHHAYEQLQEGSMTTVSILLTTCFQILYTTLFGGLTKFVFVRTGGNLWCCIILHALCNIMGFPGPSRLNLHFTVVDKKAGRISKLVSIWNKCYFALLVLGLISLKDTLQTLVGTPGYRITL
Yeast UUG start = modulators of yeast start codon fidelity, primary screen, whole organism, S. cerevisiae, single point, plate reader; S. cerevisiae UUG-firefly luciferase reporter, luminescence/redox ratio; AID 602363, 2012; 0.13% of 350,000 active; activity score, % at 18.7 µM;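 active = replicate mean at a twofold rise or more, about +100% in these data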;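 also: firefly luciferase made from a UUG start codon reports start codon fidelity; reporter light over untreated wells divided by growth signal over untreated wells; some hits fall short of that in this replicate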
eIF4H inh = human eIF4H binding inhibitors, primary screen, translation initiation inhibitor project, biochemical, uHTS, fluorescence polarization | 0.94% of 290,000 active | Eukaryotic translation initiation factor 4H (Homo sapiens), Q15056 | eIF4H fluorescence polarization binding assay | AID 2012, 2009 | inhibition, % at 35 µM;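 active = 50% or more with normal probe brightness, or confirmed in later tests; inconclusive = above 50% with abnormal brightness, or retests that disagree; inactive = below 50% or failed in later tests; about a fifth of its hits are not listed in these tables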;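 also: calls also rest on retests at 20 µM and on dose response follow-up; 0% = protein and probe with vehicle and 100% = probe without protein; strong numbers were not always called active; many hits fall short of the cut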
CSC inhib = cancer stem cell viability inhibitors, primary screen, luminescence | cancer stem cell-like cells viability | inhibition, % at 7.5 µM | 1.1% of 300,000 active;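 active = mean at 75% or more and at least half the replicates too; inconclusive = mean and replicates disagree; tested in HMLE shEcad cells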;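 also: 0% = median of negative and 100% = median of positive control wells; the first replicate is given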
PABP FP inh = PABP poly(A) RNA binding inhibitors, primary screen, biochemical, fluorescence polarization, uHTS; inhibition, % at 35 µM; 1% of 290,000 active; AID 2014, 2009;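 active = 50% or more with normal probe brightness, or confirmed in later tests; inconclusive = above 50% with abnormal brightness, or retests that disagree; inactive = below 50% or failed in later tests; about a fifth of its hits are not listed in these tables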;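 also: calls also rest on retests at 20 µM and on dose response follow-up; controls were probe without protein and protein plus probe with vehicle; some compounds called inactive have numbers as strong as hits; many hits fall short of the cut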
Target sequence (P11940 whole entry, looked up): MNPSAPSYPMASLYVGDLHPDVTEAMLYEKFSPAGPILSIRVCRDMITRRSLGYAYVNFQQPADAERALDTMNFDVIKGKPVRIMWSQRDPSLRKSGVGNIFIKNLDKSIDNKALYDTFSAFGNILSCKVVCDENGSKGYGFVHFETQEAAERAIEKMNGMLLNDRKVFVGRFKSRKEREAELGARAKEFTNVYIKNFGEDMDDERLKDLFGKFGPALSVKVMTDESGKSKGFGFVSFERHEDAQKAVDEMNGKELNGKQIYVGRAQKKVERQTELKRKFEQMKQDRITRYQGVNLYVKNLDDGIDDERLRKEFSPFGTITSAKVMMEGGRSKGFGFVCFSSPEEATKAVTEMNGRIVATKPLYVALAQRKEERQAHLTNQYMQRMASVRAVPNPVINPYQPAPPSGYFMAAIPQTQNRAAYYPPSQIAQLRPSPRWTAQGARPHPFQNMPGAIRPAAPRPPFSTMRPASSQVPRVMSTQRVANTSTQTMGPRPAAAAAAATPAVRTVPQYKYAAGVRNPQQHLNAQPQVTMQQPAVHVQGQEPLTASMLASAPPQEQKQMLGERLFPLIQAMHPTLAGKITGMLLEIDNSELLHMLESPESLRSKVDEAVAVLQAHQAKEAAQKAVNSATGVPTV
eIF4H inh retest = second read-out of eIF4H inh, no call of its own (marks repeat the call); inhibition, %; compound at 20 µM; confirmation average;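 mean of two retest wells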
PABP FP inh retest = also measured in PABP FP inh; calls as there; inhibition, %; compound at 20 µM; confirmation repeats;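 mean of two retest wells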
MT1-MMP act inh RFP = further read-out of MT1-MMP act inh, marked with its call; RFP signal change, %; measured here: RFP expression control read;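 0 = vehicle wells; hits needed this value within 50% of zero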
Numbers without * were called inactive; i = inactive; u = inconclusive; x = not tested or not shown; & = joins results of further samples. Some of the compounds tested (hit frequency here may not be typical).

SMILES | MT1-MMP act inh | MT1-MMP act inh RFP | HIV Env fusion | Rce1 inh | Yeast UUG start | eIF4H inh | CSC inhib | PABP FP inh | others
COc1cccc(Oc2c(C)oc3cc(OC(=O)N(C)C)ccc3c2=O)c1 | 4 | -4 | -15 | i | -19 | -5 | 3 | -15
COc1ccc(C(=O)N/N=C/C23CC[C@@H](O)CC2(O)CC[C@@H]2[C@@H]3CCC3(C)C(C4=CC(=O)OC4)CCC23O)cc1 (some centres not stated) | 4 | 6 | -24 | i | x | 0 | 56 | -10
NP(=O)(OCCCc1ccccc1)Oc1ccc(Cl)cc1 (configuration not stated) | 3 | 3 | -6 | i | -5 | 72 | 4 | 4 | eIF4H inh retest=25;PABP FP inh retest=11
CCn1ccnc1CN1CCCC(C(=O)c2cc(F)ccc2OC)C1 (configuration not stated) | -7 | -5 | -7 | i | -20 | 61 | -4 | 75 | eIF4H inh retest=19;PABP FP inh retest=21
CC/C(=N\NC(=O)c1ccccc1)c1c(O)n(Cc2ccccc2)c(=O)[nH]c1=O | -10 | 4 | 10 | i | -8 | 30 | -10 | 15
COc1ccc(N2C(=O)NC(=O)/C(=C\c3ccccc3[N+](=O)[O-])C2=O)cc1 | 2 | 2 | -2 | i | -1 | 3 | -4 | 1
COc1ccc(OCC(=O)N2CCN(C/C=C/c3ccccc3)CC2)cc1 | 2 | 1 | 25 | i | x | -3 | 8 | -6
Nc1cnn(-c2ccccc2)c(=O)c1Cl | 0 | 0 | 3 | i | -3 | -10 | -16 | -4
COc1ccc(CC(C)Nc2cccc(F)c2)cc1 (configuration not stated) | -4 | -1 | -5 | i | -4 | -16 | -14 | -6
O=C1NC(=O)N(c2ccccc2)C(=O)/C1=C/c1coc2ccc(O)cc2c1=O | -3 | 5 | -10 | i | -13 | u | -1 | u
O=C1C=C2C=C[C@@H]3CC2(O1)[C@H]1CCCCN31 | 2 | 3 | 23 | x | -11 | x | 21 | x
Cc1ncc(C(=O)O)n1C(C)c1ccccc1 (configuration not stated) | 6 | 4 | 11 | x | 5 | x | x | x
BrCC(Br)(Br)Br | -2 | 5 | x | x | -8 | x | 8 | x
COc1cc2c(cc1OC)[C@H]1C(=O)c3ccc4c(c3O[C@H]1CO2)C[C@@H](C(C)(C)O)O4 | 2 | -10 | -15 | x | -3 | x | -13 | x
COC(=O)C1=C(c2cc3ccccc3s2)C[C@@H]2CC[C@H]1N2C(=O)NC1CCCCC1 | 6 | -11 | 11 | i | -5 | x | 9 | x
c1ccc(Cn2ccnc2)cc1 | 1 | 5 | x | i | -19 | -6 | -15 | -1
O=S(=O)(c1ccc(F)cc1)N1CN2CCN(C2)C1 | -1 | -1 | -9 | i | -16 | 6 | 33 | 6
COC(=O)C1=C(c2ccc(OC)c(OC)c2)C[C@@H]2CC[C@H]1N2C(=O)NCCOc1ccccc1 | 1 | 2 | 3 | x | -5 | x | 3 | x
C(=NN1CCCCCC1)c1c[nH]c2ccccc12 | -2 | 2 | 15 | x | 2 | x | x | x
CN(C)c1ccc(N=Cc2c(O)n(CCC3=CCCCC3)c(=O)[nH]c2=O)cc1 | -69 | 4 | x | i | -23 | 1 | -2 | 57 | eIF4H inh retest=0;PABP FP inh retest=8
COc1ccc(C(=O)C2CCCN(C3CSCCSC3)C2)c(C)c1 (configuration not stated) | -1 | -2 | 17 | i | -2 | -5 | 35 | -10
COC(=O)C1=C(c2c(C)noc2C)C[C@@H]2CC[C@H]1N2C(=O)NCCCOC(C)C | -2 | 1 | -18 | x | -18 | x | -27 | x
COC(=O)C1=C(c2cc3ccccc3s2)C[C@@H]2CC[C@H]1N2C | -2 | 2 | -4 | x | -8 | x | -31 | x
O=C(NC(=O)N1CCC2(CC1)OCCO2)c1ccc(Cl)cc1 | -3 | -2 | 7 | i | -10 | -10 | -2 | 0
Clc1ccccc1CNCCc1c[nH]c2ccccc12 | 2 | 2 | -12 | x | -9 | x | x | x

Remaining list, next part:
SMILES | MT1-MMP act inh | MT1-MMP act inh RFP | HIV Env fusion | Rce1 inh | Yeast UUG start | eIF4H inh | CSC inhib | PABP FP inh | others
COC(=O)C1=C(c2cc3ccccc3o2)C[C@@H]2CC[C@H]1N2C(=O)N1CCOCC1 | 6 | -8 | -21 | i | 7 | x | 49 | x
CC1CN=C(Nc2ccccc2)S1 (configuration not stated) | 5 | 3 | -10 | x | -14 | 5 | 6 | 0
COc1cc(/C=C2/C(=O)NC(=O)N(c3ccccc3)C2=O)ccc1O | 5 | 6 | 11 | i | x | u | -14 | -4
O=C(Cc1ccccc1)OCCNC(=O)c1cccnc1 | 0 | -1 | x | i | -8 | -2 | x | 13
CN(C)CCN=Cc1c(O)n(Cc2ccc3c(c2)OCO3)c(=S)[nH]c1=O | -7 | -3 | 3 | i | -17 | 1 | -2 | -7
CC1=CC(=O)NP(=O)(Oc2ccc3ccccc3c2)N1 (configuration not stated) | -2 | -5 | x | i | -5 | -7 | 9 | 8
COC(=O)C1=C(c2cc3ccccc3s2)C[C@@H]2CC[C@H]1N2C(=O)N1CCOCC1 | 6 | -10 | -161 | i | 5 | x | 53 | x
Cc1cccc(CN2CCN(Cc3ccc(Cl)cc3)CC2)c1 | 2 | 2 | x | i | x | 2 | 37 | 25
O=C(COC(=O)Cc1ccccc1)Nc1ccc(SC(F)F)cc1 | 5 | 7 | -15 | i | x | -10 | -7 | 6
CN1C(=O)C(C2(C#N)CCCCC2)C(=O)N(C)C1=O | 1 | 0 | x | i | -13 | -15 | -14 | 1
CCn1c(O)c(/C(C)=N/N2CCCCC2c2cccnc2)c(=O)[nH]c1=S (configuration not stated) | 6 | 9 | -43 | i | -4 | 11 | -8 | 2
C[C@]12CC[C@H](O)C[C@H]1CC[C@@H]1[C@@H]2C[C@@H](O)[C@]2(C)[C@@H](C3=CC(=O)OC3)CC[C@]12O | -36 | -29 | -41 | x | -14 | x | 84* | x
CCC(=Nc1ccccc1NC(C)=O)c1c(O)n(C)c(=O)n(C)c1=O | 1 | -1 | x | i | -17 | 0 | -7 | 6
COc1cc2c(cc1O)C[C@H]1c3c(cc(O)c(OC)c3-2)CCN1C | -2 | -4 | -17 | x | -15 | x | -10 | x
O=c1c2ccccc2nc(/C=C/c2ccccc2F)n1-c1ccccc1O | -5 | -3 | -5 | i | -18 | -9 | 98* | -14
COc1ccc(NC(=O)c2cn(CCC#N)nc2-c2cccc([N+](=O)[O-])c2)cc1 | 1 | -2 | 9 | i | x | -8 | -6 | 5
O=c1[nH]c(=O)n(-c2ccccc2F)c(O)c1/C=C1\C=Nc2ccccc21 | -5 | 1 | -6 | i | x | u | 3 | u
CCN(CC)C(=O)c1ccc(N2C(=O)C3CC=C(Cl)CC3C2=O)cc1 (configuration not stated) | 0 | 7 | -70 | i | x | -3 | -14 | 2
CCCC1=C(C(=O)OCC)C2(C(=O)Nc3ccc(C)cc32)C(C#N)=C(N)O1 (configuration not stated) | 0 | 2 | 7 | i | 7 | -2 | 3 | 0
CCOC(=O)c1c(N)n(CCN2CCCCC2)c2nc3ccccc3nc12 | 2 | 0 | x | i | -1 | 94* | -1 | 105*
O=C(CSc1ccccc1)N1CCC2(CC1)OCCO2 | 3 | 4 | -66 | i | -10 | -8 | -7 | 4
COc1ccc(C2=NCC(=S)Nc3ccc(Cl)cc32)cc1Cl | -5 | -7 | 24 | i | x | 4 | 2 | -4
COc1ccccc1C1=NCc2nnc(C)n2-c2ccc(Cl)cc21 | 1 | 5 | -15 | i | x | -11 | -21 | -4
CCCCCCOc1ccc(CN2CCN(CC)CC2)cc1 | -1 | 0 | -27 | i | -44 | 5 | 73 | 27
Cn1cc(C(=O)OCC(=O)N2CCCC2)c2ccccc21 | 2 | 3 | 5 | x | 2 | x | -4 | x

Later entries:
SMILES | MT1-MMP act inh | MT1-MMP act inh RFP | HIV Env fusion | Rce1 inh | Yeast UUG start | eIF4H inh | CSC inhib | PABP FP inh | others
CC(C)(C)N1Cc2ccccc2C1=N | -5 | 2 | -38 | i | 27 | -4 | 16 | 14
CCC(COC(=O)NC)NC(=O)Oc1cccc(C)c1 (configuration not stated) | -3 | -2 | x | i | -18 | -9 | 7 | -6
O=C1NCN(c2ccccc2)C12CCN(C(c1cccc3ccccc13)c1nnnn1C1CCCC1)CC2 (configuration not stated) | 3 | -3 | 0 | x | -13 | x | x | x
CCCC[N+]12C3C[C@H](C4[C@H](O)[C@]5(C[C@@H]41)c1ccccc1N(C)[C@@H]35)[C@H](CC)[C@H]2O (some centres not stated) | -4 | -1 | 18 | i | -5 | x | -7 | x
Cc1cccc(N2C(=O)/C(=C/c3ccc(CN(CCC#N)S(C)(=O)=O)o3)C(=O)NC2=S)c1 | -12 | 14 | x | i | -19 | 22 | -6 | 20
CN1CCc2cccc(Cl)c2CC1 | -4 | -6 | -10 | x | -22 | x | -11 | x
Cc1ccsc1C(=O)C1CCCN(Cc2ccccc2O)C1 (configuration not stated) | -1 | -4 | 6 | i | x | -3 | 2 | 7
COc1ccc(OC(=O)N(C)C[C@H]2OCc3cnnn3CCCC(=O)N([C@H](C)CO)C[C@H]2C)cc1 | 3 | 8 | 7 | x | -19&3&-5 | x | x | x
COc1cc(C(=S)N2CCOCC2)cc(OC)c1OC(=O)Cc1ccccc1 | -3 | -2 | -17 | i | x | -3 | 4 | 6

Among those listed so far, 9 have a Cl atom.
SMILES | MT1-MMP act inh | MT1-MMP act inh RFP | HIV Env fusion | Rce1 inh | Yeast UUG start | eIF4H inh | CSC inhib | PABP FP inh | others
NP(=O)(OCCCc1ccccc1)Oc1ccc(Cl)cc1 (configuration not stated) | 3 | 3 | -6 | i | -5 | 72 | 4 | 4 | eIF4H inh retest=25;PABP FP inh retest=11
Nc1cnn(-c2ccccc2)c(=O)c1Cl | 0 | 0 | 3 | i | -3 | -10 | -16 | -4
O=C(NC(=O)N1CCC2(CC1)OCCO2)c1ccc(Cl)cc1 | -3 | -2 | 7 | i | -10 | -10 | -2 | 0
Clc1ccccc1CNCCc1c[nH]c2ccccc12 | 2 | 2 | -12 | x | -9 | x | x | x
Cc1cccc(CN2CCN(Cc3ccc(Cl)cc3)CC2)c1 | 2 | 2 | x | i | x | 2 | 37 | 25
CCN(CC)C(=O)c1ccc(N2C(=O)C3CC=C(Cl)CC3C2=O)cc1 (configuration not stated) | 0 | 7 | -70 | i | x | -3 | -14 | 2
COc1ccc(C2=NCC(=S)Nc3ccc(Cl)cc32)cc1Cl | -5 | -7 | 24 | i | x | 4 | 2 | -4
COc1ccccc1C1=NCc2nnc(C)n2-c2ccc(Cl)cc21 | 1 | 5 | -15 | i | x | -11 | -21 | -4
CN1CCc2cccc(Cl)c2CC1 | -4 | -6 | -10 | x | -22 | x | -11 | x
